ClpP mod: qHTS Assay for Activators of ClpP | purified B. subtilis ClpP, FRET peptide cleavage, 20 min | Potency, µM (titrated, usually from 57.5 µM), for the others: top-dose activity change, negative = active | 340,000 compounds, 1.9% hits | AID 651965, 2013; active = well fitted falling curve with a large enough effect; inconclusive = small, poorly fitted or top-dose-only effect; inactive = no such curve, though single readings can be large or run the other way; also: potency is read from the fitted curve at half-maximal effect; the source files actives as falling curves though it sought activators and does not explain the sign; nearly all actives have a fitted effect of over 65% in size; many hits overshoot -100%
Target sequence (P80244 whole entry, looked up): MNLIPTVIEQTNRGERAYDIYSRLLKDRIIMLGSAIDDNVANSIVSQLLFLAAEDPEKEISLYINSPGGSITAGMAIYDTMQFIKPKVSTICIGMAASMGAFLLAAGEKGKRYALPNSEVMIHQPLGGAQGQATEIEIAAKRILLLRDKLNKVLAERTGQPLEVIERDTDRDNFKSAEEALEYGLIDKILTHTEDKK
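Purified B. subtilis ClpP, 10 microg/mL final in Tris/HCl pH8 with KCl, BSA, glycerol and Tween-20, cleaved an Abz/nitrotyrosine-quenched decapeptide. Fluorescence (ex 320, em 430) was read at 0 and 20 min at room temperature. Delta was normalized to 5.8 microM ADEP and DMSO/no-enzyme controls.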
TRPV1 potentiator: potentiators of human vanilloid receptor 1 (TRPV1) | potentiation, % at 8.33 µM | Q8NER1 | TRPV1-expressing cells, Fluo-8 calcium influx, capsaicin EC20 potentiation; host cell line not named in the record; control for the full effect not named in the record | 320,000 compounds, 0.02% hits; active means potentiation above 80%; inconclusive means 30% to 80%; inactive means below 30%; also: 0% is about no effect
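Fluo-8 calcium influx in TRPV1-expressing cells, kinetic read (ex 480/em 520 nm). Compound added and read 3 min for agonist activity, followed by capsaicin at EC20 final and 2 min further read for enhancement.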
Sfp PPTase inh: inhibitors of Bacillus subtilis Sfp phosphopantetheinyl transferase; Q9F4F7; Biochemical Sfp PPTase activity, qHTS; Potency, µM, inactives show max response, negative = inhibition, most hits filed as inhibitors; 310,000 compounds, 3.5% hits; AID 1490; active = well fitted inhibition curve with a large enough effect; inconclusive = small, poorly fitted or top-dose-only effect, or another doubt; inactive = no such curve, though single readings can be large or run the other way;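 also: the enzyme is Sfp with the accession as filed and its product quenches rhodamine fluorescence; potency is read from the fitted curve at half-maximal effect; 0% = enzyme reaction without inhibitor and -100% = no enzyme wells; top concentration of the series not given in the record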
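With Hepes-Na pH 7.6 buffer containing 10 mM MgCl2, Sfp (15 nM) modified BHQ-2-YbbR (12.5 uM) using rhodamine-CoA (5 uM). Two reads 30 minutes apart at 525/598 nm yielded each well's rate.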
gsp ag: activates gsp, the McCune-Albright syndrome mutation | AID 624287 | Potency, µM (series often up to 76.9 µM), inactives show at the top dose activation (cAMP increase), hits mostly activators | gsp mutant cells, cAMP HTRF, 30 min; control for the full effect not named in the record | 340,000 compounds, 0.13% hits; active = well fitted activation curve with a large enough effect; inconclusive = small, poorly fitted or top-dose-only effect, or another doubt; inactive = no such curve, though single readings can be large or run the other way; cell line not stated here;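 also: phosphodiesterase inhibitor Ro 20-1724 added with compounds to block cAMP breakdown; potency is read from the fitted curve at half-maximal effect; nearly all actives have a fitted effect of over 60% in size; about a fifth of the inactives were tested at one dose only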
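Cells in DMEM/10% FBS with G418 were pretreated with compounds in DMSO plus […] (300 uM stock) for 30 min at 37C. cAMP was measured by HTRF (cAMP-d2 plus anti-cAMP antibody-K) after 30 min at room temperature.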
D2 PAM: positive allosteric modulators of human D2 dopamine receptor. potentiation, % (test concentration not listed). DiscoveRx D2 beta-arrestin cells, luminescence, 90 min; 100% = 57 uM dopamine signal. P14416. 360,000 compounds, 0.23% hits; active = potentiation of 50% or more; inconclusive = 30% to 50%; inactive = 30% or less;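 also: compound concentration not given in the record; tested on top of an EC20 dose of dopamine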
Target sequence (P14416 whole entry, looked up): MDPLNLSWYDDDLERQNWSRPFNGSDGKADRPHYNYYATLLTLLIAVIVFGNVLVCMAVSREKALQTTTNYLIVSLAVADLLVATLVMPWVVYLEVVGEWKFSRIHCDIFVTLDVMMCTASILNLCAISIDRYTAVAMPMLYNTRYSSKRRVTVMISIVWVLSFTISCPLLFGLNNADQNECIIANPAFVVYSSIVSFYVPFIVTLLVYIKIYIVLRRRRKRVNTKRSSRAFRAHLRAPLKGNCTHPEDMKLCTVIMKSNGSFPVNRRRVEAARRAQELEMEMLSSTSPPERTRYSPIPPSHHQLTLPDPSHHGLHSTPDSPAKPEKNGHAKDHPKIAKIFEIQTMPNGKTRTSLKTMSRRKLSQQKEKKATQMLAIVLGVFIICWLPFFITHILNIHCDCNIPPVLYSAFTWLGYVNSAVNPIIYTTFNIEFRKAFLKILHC
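PathHunter beta-arrestin assay in DiscoveRx D2 cells. Compounds were added with an EC20 of dopamine (50 nM final) for 90 min at 37 deg C. Luminescence was read 1 h after detection reagent, with 57 uM dopamine as the EC100 control.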
gsp antag: antagonizes gsp, the McCune-Albright syndrome mutation; gsp-mutant cells, cAMP HTRF, 30 min; control for the full effect not named in the record; Potency, µM (top dose mostly 76.9 µM), for inactives: at the top dose activity change, negative = inhibition, usual class: inhibitors; 340,000 compounds, 0.4% hits; AID 624288; active = falling curve of any shape with a large fitted effect; inconclusive = falling curve, mostly with a smaller effect; inactive = flat or rising curve; cell line not stated here;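 also: intracellular cAMP measured with PDE inhibitor Ro 20-1724 present during compound exposure; potency is read from the fitted curve at half-maximal effect; % is scaled to controls: 0 for no effect and ±100 for the full control effect; nearly all actives have a fitted effect of over 65% in size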
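G418-selected cells were plated in DMEM/10% FBS for 16-24 h at 37C, then treated with compounds plus the PDE inhibitor […] (300 uM solution added) for 30 min at 37C. Intracellular cAMP was measured by HTRF after 30 min lysis at room temperature.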
Menin-MLL FL inh: inhibitors of human menin-MLL interaction, wild-type MLL peptide. Fluorescence polarization, fluorescein-MLL peptide displacement from menin. FP activity change, % at 61.4 µM. 290,000 tested, under 10 active; inconclusive = falling polarisation curve, or a change in total fluorescence; inactive = total fluorescence flat and polarisation flat or rising; no compound was filed as active; the % refers to the polarisation; negative = inhibition;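 also: % of control where 0% means no effect; inhibitors lower the polarisation; unlabelled MLL peptide was the positive control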
An asterisk follows results filed as active; ? = inconclusive; / = no result given; [ ] = dose if it differs, or a comment.

Results follow in this order: ClpP mod | TRPV1 potentiator | Sfp PPTase inh | gsp ag | D2 PAM | gsp antag | Menin-MLL FL inh
COC(=O)C(C)Sc1nc2c(c(=O)n(C)c(=O)n2C)n1Cc1cccc(C)c1 (stereo not given)
→ 1.0% | -18.9 | -4.3% | 12.7% | 12.2 | 4.7% | 4.5
CCOc1ccc(S(=O)(=O)N(CC(=O)NC2CCCC2)c2ccc(F)cc2)cc1
→ -1.7% | / | / | -6.6% | 11.8 | -5.8% | /
O=C(CN1CCN(c2nc(-c3ccc(F)cc3)cs2)CC1)NCc1ccc2c(c1)OCO2
→ -1.1% | -16.2 | -28.8% | 4.4% | 2.9 | ? | 3.6
CC1CC(c2ccccc2)n2nc(N3C(=O)c4ccccc4C3=O)nc2N1 (stereo not given)
→ 0.8% | -13.4 | 24.1% | -7.0% | -1.5 | 10.0% | 2.7
Cc1ccccc1-n1cc(C(=O)c2cc(Cl)ccc2O)cc(C#N)c1=O
→ 64.4% | 3.7 | 9.7% | 23.5% | 14.2 | ? | ?
NS(=O)(=O)c1ccc(CCNC(=O)CCc2nc3sc4c(c3c(=O)[nH]2)CCCC4)cc1
→ -9.4% | -12.4 | / | -28.8% | -20.4 | 1.9% | /
COc1ccc2cc3cc(C(=O)NCCC(C)C)oc3nc2c1
→ -0.4% | 19.3 | 10.4% | -14.4%[15.4 µM] | -7.6 | -4.1% | -2.9
CCOc1ccc2nc(N(Cc3ccccc3)C(=O)CCNC(C)=O)sc2c1
→ 0.7% | -13.4 | -6.3% | 1.6%[15.4 µM] | 16.1 | -2.9% | /
CCOCCn1c(CN2CCN(c3cccc(Cl)c3)CC2)nc2c1c(=O)n(C)c(=O)n2C
→ -2.2% | / | -3.1% | -35.6%[inhibitor] | -9.6 | 9.2% | 1.6
O=C(N/N=C\c1ccc(-c2cccc(Cl)c2)o1)C(=O)NC1CCCC1
→ / | 2.8 | 12.9% | 21.3% | -9.0 | ? | 0.0
NC(=O)COC(=O)c1ccc(Cl)c(S(=O)(=O)N2CCN(c3ccc(F)cc3)CC2)c1
→ 2.3% | 9.4 | -4.5% | 35.1% | 6.9 | -6.9% | 1.0
Cc1[nH]nc2c1C(c1ccc(-c3ccccc3C#N)o1)C(C#N)=C(N)O2 (stereo not given)
→ 0.1% | 7.0 | 22.4µM* | 3.0% | -8.1 | -13.6% | 6.6
O=c1c2ccccc2nnn1CSc1nc2ccccc2c(=O)n1Cc1ccco1
→ -0.4% | 1.4 | -19.4% | -56.4%[inhibitor] | -3.6 | 8.5% | -4.7
COc1cccc(/C=N/NC(=O)C(=O)Nc2ccccc2OC(F)(F)C(F)F)c1
→ 0.6% | -2.5 | 6.4% | -24.1%[15.4 µM] | -8.6 | 10.1% | 0.6
CCCC1C2C(=O)N(c3ccccc3OC)C(=O)C2ON1c1ccccc1 (stereo not given)
→ 0.3% | 4.1 | -1.4% | 21.0% | -24.7 | -26.4% | 0.2
COc1ccc(Cl)cc1C(=O)NNC(=O)COC(=O)c1cccs1
→ -4.7% | / | / | -1.2% | -9.1 | 1.9% | /
CCOC(=O)N1CCC(NC(=O)c2ccc3c(c2)sc2nc(-c4cccc(OC)c4)cn23)CC1
→ / | -14.1 | -4.6% | / | / | / | 5.8
CCOc1ccc(NC(=O)CN(C)C(=O)c2cn(-c3ccccc3)nc2-c2cccs2)cc1OCC
→ -2.3% | 6.1 | 1.4% | -9.6% | 15.2 | -28.5% | /
C[C@H](CO)N1C[C@H](C)[C@@H](CN(C)C(=O)Nc2ccc3c(c2)OCO3)Oc2ccc(NC(=O)NC3CCCCC3)cc2C1=O
→ -0.3% | / | / | -3.9% | -9.8 | 8.2% | /
CCOc1ccc(NC(=O)CSc2nc3c([nH]c4ccccc43)c(=O)n2C)cc1
→ ? | 2.6 | 14.9% | 13.1% | -6.3 | 7.1% | -5.2

Whole records, looked up by structure. Screens in order: ClpP mod | TRPV1 potentiator | Sfp PPTase inh | gsp ag | D2 PAM | gsp antag | Menin-MLL FL inh
CC1CC(c2ccccc2)n2nc(N3C(=O)c4ccccc4C3=O)nc2N1 (stereo not given) in the list: 0.8% | -13.4 | 24.1% | -7.0% | -1.5 | 10.0% | 2.7
Cc1[nH]nc2c1C(c1ccc(-c3ccccc3C#N)o1)C(C#N)=C(N)O2 (stereo not given) in the list: 0.1% | 7.0 | 22.4µM* | 3.0% | -8.1 | -13.6% | 6.6

Later entries.
Results follow in this order: ClpP mod | TRPV1 potentiator | Sfp PPTase inh | gsp ag | D2 PAM | gsp antag | Menin-MLL FL inh
Cc1ccccc1CS(=O)(=O)Cc1ccc(C(=O)NCc2ccco2)o1
→ -1.7% | 6.4 | 21.3% | -8.9% | -7.5 | -4.4% | 0.9
COC(=O)c1sccc1NC(=O)CCC1CCCCC1
→ 0.4% | -7.4 | -2.6% | 8.2% | -4.5 | -26.5% | -1.0
O=C(Nc1cccc(C(F)(F)F)c1)c1cccnc1NCCO
→ / | 14.2 | 10.1% | -27.1% | -7.3 | 4.5% | -6.0
CCCNC(=S)Nc1ccc(Cl)cc1C
→ -2.2% | -0.6 | -1.1% | ? | -13.8 | 12.0% | 5.0
OC(C#CCN1CCOCC1)(c1ccccc1)C1CC1 (stereo not given)
→ -1.5% | -2.9 | -7.8% | -1.4% | -2.4 | -6.5% | 0.3
Cc1cc(C)c2c(c1C)C(=O)CCC2
→ / | / | / | 1.6% | -3.8 | 7.5% | /
CC(CN1CCOCC1)(NS(=O)(=O)c1ccccc1)c1ccccc1 (stereo not given)
→ -0.6% | -11.9 | -28.6% | -11.9% | -1.9 | -2.7% | 3.6
Cc1cc(NC(=O)c2ccc(N3CCCC3)c([N+](=O)[O-])c2)no1
→ / | -5.3 | 8.2% | -23.1%[15.4 µM] | -1.4 | 4.8% | -4.6
COc1ccc(-n2nc(C(=O)NCC(=O)NCC3COc4ccccc4O3)c3ccccc3c2=O)cc1 (stereo not given)
→ -4.2% | 2.1 | 14.2% | 4.8% | 7.6 | -22.1% | -2.5
O=C(O)CCCNS(=O)(=O)c1ccc(F)cc1
→ 0.4% | 1.0 | 8.8% | ? | -8.0 | 12.3% | 6.9
COc1ccc(-c2noc(CN(C)Cc3ccc(C)o3)n2)cc1
→ -2.0% | 4.0 | 3.9% | 19.8% | -4.5 | -7.0% | 0.5
O=C(Cn1nc(C(=O)O)c2ccccc2c1=O)c1cc(F)ccc1F
→ 0.5% | -4.9 | 15.1% | ? | -6.4 | 17.5% | 2.4
CC(C)n1nc(C(=O)OCn2nnc3ccccc3c2=O)c2ccccc2c1=O
→ 0.7% | 12.7 | 14.9% | 1.5% | -17.1 | 3.9% | -0.2
CCOC(=O)N1CCC(N2CCCC(C(=O)c3ccc4cc(OC)ccc4c3)C2)CC1 (stereo not given)
→ / | -12.7 | -2.8% | -10.7%[15.4 µM] | -17.8 | -14.2% | -0.4
CCC(C)Nc1nc2c(c(=O)n(C)c(=O)n2C)n1Cc1ccc(Cl)cc1 (stereo not given)
→ -4.0% | ? | -8.5% | ? | -6.1 | -7.1% | 0.3
CC1(C)CC(=O)C=C(c2cccc(OC(=O)c3ccc(Br)cc3)c2)C1=O
→ 0.1% | / | / | -55.5% | 4.1 | / | /
CC1CC(C)CN(C(=O)c2ccc3ncsc3c2)C1 (stereo not given)
→ -14.6% | -0.7 | / | 20.7% | -8.1 | 6.1% | /
C=C1CCN([C@@H](CC(C)C)C(=O)O)S(=O)(=O)c2ccccc21
→ 0.2% | / | / | -3.0% | 1.4 | 3.0% | /
CCc1ccc(/C=N/NC(=O)c2cc(-c3cccc([N+](=O)[O-])c3)n[nH]2)cc1
→ / | 16.1 | 19.3% | 7.5% | -3.8 | -6.1% | 1.8
COc1ccc2[nH]c3nc(SCC(=O)Nc4cccc(NC(C)=O)c4)nnc3c2c1
→ -2.0% | ? | -4.7% | 5.9% | 1.0 | 5.6% | -5.0

Following part.
Results follow in this order: ClpP mod | TRPV1 potentiator | Sfp PPTase inh | gsp ag | D2 PAM | gsp antag | Menin-MLL FL inh
COCCCN(CC(=O)Nc1ccc(N2CCOCC2)cc1)S(=O)(=O)c1ccc(C)cc1
→ -0.1% | 0.1 | 17.2% | 2.8%[15.4 µM] | 0.4 | 3.0% | 0.9
O=C(NN=Cc1ccc(F)cc1)c1ccccc1NS(=O)(=O)c1cccs1
→ -14.3% | / | / | 15.9% | 1.5 | ? | /
CCOc1ccc(C(=O)Nc2cccc(-c3nc4cccnc4o3)c2)cc1Cl
→ -2.2% | -7.4 | 15.6% | 11.3% | 0.3 | -1.7% | 0.3
COc1ccc(-c2cc3nc(C)cc(-c4ccc(OC)cc4)n3n2)cc1
→ -23.9% | ? | -17.6% | ? | 3.2 | -2.3% | -2.8
COc1ccc(CNC(=O)CSc2cc(=O)n(C)c3ccccc23)cc1
→ / | -1.4 | 10.2% | ? | -1.1 | -4.6% | 3.9
CSc1nnc(-c2ccc(NC(=O)CCc3ccccc3)cc2)n1C
→ -2.0% | 6.5 | -20.5% | -44.0%[inhibitor] | -5.9 | 1.1% | -0.7
COc1ccc(C2C(C(=O)N3CCN(c4ccccc4)CC3)c3ccccc3C(=O)N2C)cc1 (stereo not given)
→ 0.0% | 8.6 | 8.8% | ? | 9.6 | -12.0% | -0.8
O=C(CSc1ccccc1)NCc1cccnc1
→ 0.4% | 3.9 | 13.9% | 23.8% | -3.7 | 11.8% | 1.8

Structures listed above marked active in Sfp PPTase inh:
Compound,Sfp PPTase inh,gsp ag,D2 PAM,gsp antag,Menin-MLL FL inh
Cc1[nH]nc2c1C(c1ccc(-c3ccccc3C#N)o1)C(C#N)=C(N)O2 (stereo not given),22.4µM*,3.0%,-8.1,-13.6%,6.6

Reprinted at random: 2 entries already listed, in no set order.
Results follow in this order: ClpP mod | TRPV1 potentiator | Sfp PPTase inh | gsp ag | D2 PAM | gsp antag | Menin-MLL FL inh
COc1ccc(CNC(=O)CSc2cc(=O)n(C)c3ccccc23)cc1
→ / | -1.4 | 10.2% | ? | -1.1 | -4.6% | 3.9
O=C(N/N=C\c1ccc(-c2cccc(Cl)c2)o1)C(=O)NC1CCCC1
→ / | 2.8 | 12.9% | 21.3% | -9.0 | ? | 0.0

Source: PubChem BioAssay (National Center for Advancing Translational Sciences (NCATS))

Not a hit list, and some 5.1% of all compounds hit somewhere here.
